FGF22 binding: binders of recombinant human FGF22 by thermal shift | Q9HCT0 | SYPRO orange fluorescence; percent of sucrose octasulfate shift, DMSO zero | calls only at 9.99 µM | 340,000 compounds, 1.5% hits | AID 651658;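 active = melting point raised past a set limit in the mean and every replicate; inconclusive = no clear call; three in four hits are not shown here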
Target sequence (Q9HCT0 whole entry, looked up): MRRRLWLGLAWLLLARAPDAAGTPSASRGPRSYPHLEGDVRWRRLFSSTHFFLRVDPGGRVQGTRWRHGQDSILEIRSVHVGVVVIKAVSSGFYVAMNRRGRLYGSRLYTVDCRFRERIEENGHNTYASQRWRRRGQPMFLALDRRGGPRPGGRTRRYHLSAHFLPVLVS
Vif A3G: HIV-1 Vif–A3G interaction blockers – biochemical, TR-FRET, GST-Vif 1-94, biotin-A3G peptide, dose response retest, primary screen (AID 1117319); TR-FRET GST-Vif / biotin-A3G peptide binding; higher % means a stronger effect; test concentration not given here; strong numbers were not always called active; inhibition, %; hits with a dose series show IC50 in µM; 260,000 compounds, 0.57% hits;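 active = above the screen mean plus three standard deviations and confirmed in dose response; inconclusive = results disagree or hit not tested in dose response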;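 note: Vif residues 1-94 fused to GST binding biotinylated APOBEC3G peptide 110-148; 0% = full assay without inhibitor and 100% = GST in place of GST-Vif; retest series ran down from 100 µM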
UCH37 DUB inh: inhibitors of human deubiquitinating enzyme UCH37; inhibition, % (concentration not given with the values); purified proteasome/UCH37, Ub-AMC cleavage fluorescence; 330,000 compounds, 0.33% hits;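 active = mean of two replicates above 20%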;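 note: 0% = compound-free wells with enzyme and 100% = wells lacking proteasome; stock transfer was 100 nL into about 20 µL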
Target sequence (Q9Y5K5 whole entry, looked up): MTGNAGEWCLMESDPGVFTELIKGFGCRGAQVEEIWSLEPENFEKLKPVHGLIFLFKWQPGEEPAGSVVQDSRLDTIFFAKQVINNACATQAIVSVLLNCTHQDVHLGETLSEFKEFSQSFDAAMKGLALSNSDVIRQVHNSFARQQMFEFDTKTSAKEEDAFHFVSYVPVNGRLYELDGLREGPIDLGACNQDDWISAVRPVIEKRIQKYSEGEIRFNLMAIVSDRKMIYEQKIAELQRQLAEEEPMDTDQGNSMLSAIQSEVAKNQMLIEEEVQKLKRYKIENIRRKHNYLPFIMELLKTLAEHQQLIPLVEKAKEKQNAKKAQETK
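System: Proteasome-associated human UCH37 deubiquitinase; Input: 0.15 nM proteasome in added enzyme buffer; Also added: Ub-AMC substrate from 1 µM stock; Incubation: 30 min compound-proteasome preincubation then 25 min substrate reaction, room temperature; Detection: fluorescence, ex 355 nm, em 460 nm; Read-out: % inhibition of Ub-AMC cleavage fluorescence; Benchmarks: no-proteasome and no-compound wells.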
HNF4A DNA FP: change in binding of human HNF4 alpha to DNA | AID 1224865 | 360,000 compounds, 0.3% hits | activity change, % at 10 µM | P41235 | HNF4a-FITC DNA binding, fluorescence polarization, 1 h; in the data active = activity change above about 30%, passing the limit was not always enough;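 note: controls were the assay level and a saturating level of protein; the project sought stronger binding though the title names inhibitors; some compounds called inactive have numbers as strong as hits; positive values seem to mean higher polarization but the record does not say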
Ecoli growth: inhibitors of Escherichia coli growth; OD600, 23 h; active compounds read low; OD600 absorbance (no concentration beside the values); 330,000 compounds, 0.21% hits; AID 1053175;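 active = OD600 absorbance below the run mean of sample wells minus 3.6 SD, in any replicate, cut at about 0.56 in these data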;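 note: stock transfer was 300 nL into about 60 µL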
RanGTP-Imp inh: disruptors of Ran-importin-beta complex formation – biochemical, FRET, CFP-Ran, YFP-importin-beta, homogeneous, primary screen; 300,000 compounds, 1.1% hits; cell-free CFP-Ran/YFP-importin-beta FRET ratio; AID 2216; inhibition, % (no concentration beside the values);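 active = most replicates above 15%; inconclusive = exactly half above 15%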;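 note: 0% = DMSO wells and 100% = Ran loaded with GDP instead of GTP; wells of about 40 µL received 100 nL stock; the first replicate is given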
AF4-AF9 inh: MLL-AF4/AF9 protein interaction inhibition. P42568. AlphaScreen, biotin-AF4 peptide binding to FLAG-AF9. inhibition, % at 10 µM. 350,000 compounds, 0.47% hits;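 active = every replicate reaching a set inhibition limit, whatever the replicate mean, cut at about 25% in these data; inconclusive = mean inhibition reaches that limit but some replicates miss it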;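 note: 0% = plate neutral control median and 100% = total signal loss; the record names both 10 and 1 µM as test concentration; the first replicate is given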
Target sequence (P42568 whole entry, looked up): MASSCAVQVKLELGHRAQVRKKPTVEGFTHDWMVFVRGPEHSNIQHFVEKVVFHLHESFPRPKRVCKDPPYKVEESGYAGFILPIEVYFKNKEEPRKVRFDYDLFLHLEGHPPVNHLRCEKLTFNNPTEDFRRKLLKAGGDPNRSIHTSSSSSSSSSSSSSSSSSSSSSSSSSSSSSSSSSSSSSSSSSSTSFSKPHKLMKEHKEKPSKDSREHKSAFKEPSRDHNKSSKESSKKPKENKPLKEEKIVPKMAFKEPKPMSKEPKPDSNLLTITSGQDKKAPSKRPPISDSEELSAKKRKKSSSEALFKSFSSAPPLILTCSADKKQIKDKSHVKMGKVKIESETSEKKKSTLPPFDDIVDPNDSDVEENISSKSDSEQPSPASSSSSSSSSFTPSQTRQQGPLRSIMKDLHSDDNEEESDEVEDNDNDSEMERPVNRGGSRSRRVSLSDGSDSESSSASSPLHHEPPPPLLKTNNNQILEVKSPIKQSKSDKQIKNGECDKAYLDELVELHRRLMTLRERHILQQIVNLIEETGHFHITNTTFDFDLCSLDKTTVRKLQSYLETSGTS
* = called active by the depositor; i = inactive; ? = inconclusive; · = no result given; & = joins results of further samples. Only part of the results is shown; the hit share may differ from the screen's.

SMILES	FGF22 binding	Vif A3G	UCH37 DUB inh	HNF4A DNA FP	Ecoli growth	RanGTP-Imp inh	AF4-AF9 inh
COc1ccc(N(Cc2cc(=O)[nH]c3ccccc23)C(=O)C(C)C)cc1	i	-2%	-0.9	-1.4	0.66	0.4	-7.8
O=C(Nc1nnc(CCN2CCOCC2)s1)C1CCCCC1	·	1%	3.0	1.7	0.79	-0.8	·
C=CCn1c(C(C)NC(=O)c2cccc(C)c2)n[nH]c1=S (stereo unspecified)	i	1%	0.4	1.7	0.68	-1.3	-4.3
C#CCOCCOCCOCCNc1nc(N2CCN(C(=O)[C@H]([C@@H](C)CC)n3cc([C@@H](N)CC(C)C)nn3)CC2)nc(N2CCN(C(=O)[C@H](Cc3cc4ccccc4[nH]3)n3cc([C@@H](N)CC(C)C)nn3)CC2)n1	·	-2%	0.5	·	·	4.2	·
CCOC(=O)C1CCCN(C(=O)CCCn2nc(C)n3c(cc4sccc43)c2=O)C1 (stereo unspecified)	i	-2%	2.4	3.5	0.73	0.1	-3.8
Cc1ccc(S(=O)(=O)N2CCCCC2CCNC(=O)C(=O)NCc2ccccc2)cc1 (stereo unspecified)	i	0%	1.1	-0.2	0.69	1.3	0.6
COC(=O)Cn1c(CCC(=O)O)ccc1-c1ccccc1	i	12µM*	-125	2.0	0.66	-2.8	0.2
CC(=O)Oc1ccc(-c2cccc(C(=O)N(C)c3ccc(O)cc3)c2)cc1	·	-5%	2.3	4.4	0.74	-3.1	1.0
COc1ccc(-c2nc(CS(=O)CC(=O)NCCc3ccc(C)cc3)c(C)o2)cc1OC (stereo unspecified)	i	·	5.3	-2.2	0.65	-1.6	1.3
COC(=O)c1sc(NC(=O)COC(=O)C2CCC2)c(C(=O)OC)c1C	i	-5%	-0.3	2.9	0.7	·	-1.1
COc1cc2[nH]c(=O)n(Cc3ccc(C(=O)NCC4CCCO4)cc3)c(=O)c2cc1OC (stereo unspecified)	·	2%	-16	-1.6	0.7	1.3	·
CCOc1ccccc1/C=N/Nc1cc(C)nc2ccc(C)cc12	i	·	·	0.0	·	3.4	4.5
CCOC(=O)C1=CCN(S(=O)(=O)c2ccc(F)cc2)C1c1cccc(Cl)c1 (stereo unspecified)	·	·	·	-0.1	·	·	2.3
Cc1ccc(CNC(=O)C2CCN(S(=O)(=O)c3ccc4c(c3)CC(C)N4C(=O)C3CCC3)CC2)o1 (stereo unspecified)	i	·	3.9	1.9	0.71	0.8	3.8
Cc1ccc(C)c(NC(=O)CN(C)C(=O)COc2cccc3c2OC(C)(C)C3)c1	i	5%	2.7	-0.8	0.7	-2.4	5.3
COCCn1nnnc1C(c1ccccn1)N1CCN(c2cc(Cl)ccc2C)CC1 (stereo unspecified)	·	?	2.5	7.9	0.76	-1.2	·
COCc1cc(C)nc2sc(C(=O)Nc3ccc(C(=O)OC)cc3)c(N)c12	i	-6%	-133	0.7	0.7	5.1	-6.6
Cn1c(SCC(=O)N2CCN(c3ccccc3)CC2)nnc1-c1cc2ccccc2o1	·	5%&-1%	1.2	0.2	0.6	-1.3	·
CN(Cc1ccc(Cl)cc1Cl)C(=O)C1CSC2(C)CCC(=O)N12 (stereo unspecified)	i	8%	·	-0.4	·	·	0.7
O=C(Nc1cccc(F)c1)c1c(O)c2cccc3c2n(c1=O)CCC3	·	10%	-22	·	0.7	-2.6	·
CSc1nc(NS(=O)(=O)c2ccc(F)cc2F)nn1C	i	·	5.4	1.9	0.67	-1.6	-1.1
CN1C(=O)c2ccccc2N(C)C1c1cccs1 (stereo unspecified)	·	28%	-407	0.0	0.73	1.6	·
COc1ccc(C(=O)Nc2nnc(CC(=O)N/N=C/c3ccc(O)cc3O)s2)cc1	i	·	·	-13	·	108*	-1.2
CCN(CC)c1ccc(/C=N/NC(=S)NCc2ccccc2)cc1	·	?	·	-1.1	·	0.0	·
CC(C)(C(=O)N1CCC1(C)C(=O)NS(=O)(=O)c1cccc(Cl)c1)c1ccccc1 (stereo unspecified)	i	·	·	2.9	·	·	-4.4
CC1=CCC2C(=O)N(c3cccc(C(=O)N(C)C4CCCCC4)c3)C(=O)C2C1 (stereo unspecified)	·	-3%	1.6	-1.3	0.67	-0.4	·
COCCn1c(SCC(=O)Nc2ccccc2OC)nc2ccccc21	i	·	-0.9	6.1	0.72	-1.1	-6.0
COC(=O)[C@H](Cc1ccccc1)NC(=O)N1CCCCCC1	i	0%	0.2	-3.6	0.67	?	1.1
CCCNC(=O)c1ccc(CN2CCc3ccccc3C2)cc1	·	1%	0.1	-0.7	0.77	-1.0	·
CCOc1cccc(-c2nn3c(-c4cc(C)[nH]n4)nnc3s2)c1	·	5%	-0.2	1.7	0.75	-2.4	·
CC1CCCN(C(=O)C2CCN(S(=O)(=O)c3cccc4nonc34)CC2)C1 (stereo unspecified)	i	·	-0.5	-0.3	0.69	0.3	-5.7
CCOC(=O)c1c(C)oc(=O)c(CC)c1O	i	-1%	·	0.6	·	·	-0.2
CCn1c(CNC(=O)c2ccc(Cl)cc2)nnc1SCC(=O)N1CCOCC1	i	3%	4.3	4.9	0.67	-0.2	-5.6
COc1cnn(-c2cccc(Cl)c2)c(=O)c1Cl	i	·	5.9	-1.8	0.66	6.3	-3.9
FC(F)(F)c1nnc2ccc(N3CCCC3)nn12	·	1%	1.8	-0.5	0.8	3.1	·
CCOC(=O)COc1ccc(S(=O)(=O)N2CCN(c3ccc(OC)cc3)CC2)cc1	i	·	3.2	-2.7	0.69	0.8	1.2
Cc1ccc(NC(=O)CSc2ncnc3ccccc23)cc1S(=O)(=O)N1CCCCCC1	i	-8%	2.6	1.6	0.64	-0.8	3.5
CCS(=O)(=O)N1CCN(c2ccccn2)CC1	·	29%	2.1	0.2	0.66	-0.2	·
O=C(NCc1ccco1)c1ccc2c(=O)n(CC3CCCO3)c(=S)[nH]c2c1 (stereo unspecified)	·	?	1.8	0.2	0.76	0.9	·
c1ccc2c(Nc3ccc4c(c3)OCCO4)c3c(nc2c1)CCCC3	i	·	7.2	1.1	0.68	0.4	24
O=C(NCc1ccccc1)C(c1ccccc1F)N(C(=O)c1csnn1)C1CCCC1 (stereo unspecified)	i	·	-2.7	-0.6	0.7	-2.5	0.6
CC(C)Oc1ccc(S(=O)(=O)N2CCOCC2)cc1NC(=O)CC1OC(=O)c2ccccc21 (stereo unspecified)	i	·	1.1	-2.8	0.69	-0.6	0.8
Cc1cc(-c2nnc(SCC(=O)Nc3ccc(C)c(C)c3)n2N)n[nH]1	i	·	1.4	-5.0	0.65	0.0	0.3
Cc1c(C(=O)OCc2nnc(-c3ccccc3)o2)oc2ccccc12	i	·	0.1	2.3	0.69	·	-5.5
CCCCCNC(=O)C(c1ccnc2ccccc12)n1c(=O)c(-c2cc3ccccc3[nH]2)nc2ccccc21 (stereo unspecified)	i	·	·	-0.9	·	·	-22
COc1ccccc1S(=O)(=O)Cc1ccc(C(=O)N2CCN(c3cccc(Cl)c3)CC2)o1	·	7%&1%	2.6	4.0	0.72	8.7	·
CC(C)(C)NC(=O)C(c1ccncc1)N(CC1CCCO1)C(=O)Cn1nnc(-c2ccc(F)cc2)n1 (stereo unspecified)	i	5%	1.0	0.4	0.7	-1.9	0.4
CCc1cccc(NC(=O)CCS(=O)(=O)c2cccc3nonc23)c1	·	-6%	2.4	0.4	0.66	-6.0	·
CN(CC(=O)NCCc1ccccc1)S(=O)(=O)c1ccc(Br)s1	i	·	2.9	0.2	0.65	?	0.6
Cc1cc(C(=O)Nc2ccc(Br)cc2)c2ccccc2n1	i	·	-3.3	-2.3	0.67	3.9	-1.0
N#CCOc1coc(CN2CCN(c3cccc(Cl)c3)CC2)cc1=O	i	·	2.0	4.7	0.66	0.8	0.1
COc1cccc(NC(=O)C(=O)N/N=C(\C)CC(=O)Nc2ccc(NC(C)=O)cc2)c1	i	4%	·	1.6	·	-0.4	0.7
CC(=O)Nc1cccc(NC(=O)c2ccc(C(=O)Nc3cccc(NC(C)=O)c3)nc2)c1	i	·	6.0	-1.3	0.75	6.1	-0.1
COC(=O)c1cc(C(=O)OCC(=O)N(C)c2ccccc2)cc([N+](=O)[O-])c1	i	0%	2.2	-0.7	0.69	-2.8	2.8
Cc1ccc(C)c(NC(=O)CN(C)S(=O)(=O)c2ccccc2)c1	i	1%	0.2	2.6	0.76	4.8	-3.2
Cc1ccc(C2C3C(=O)N(c4ccccc4)C(=O)C3N3CCCN23)cc1 (stereo unspecified)	i	-13%	4.9	0.1	0.69	-0.4	1.0

Printed as active in RanGTP-Imp inh (from the list above):
SMILES	FGF22 binding	Vif A3G	UCH37 DUB inh	HNF4A DNA FP	Ecoli growth	RanGTP-Imp inh	AF4-AF9 inh
COc1ccc(C(=O)Nc2nnc(CC(=O)N/N=C/c3ccc(O)cc3O)s2)cc1	i	·	·	-13	·	108*	-1.2

Remaining list, next part
SMILES	FGF22 binding	Vif A3G	UCH37 DUB inh	HNF4A DNA FP	Ecoli growth	RanGTP-Imp inh	AF4-AF9 inh
O=C(CNC(=O)c1ccc(Br)cc1)N=Nc1c(O)[nH]c2ccc([N+](=O)[O-])cc12	i	·	7.1	-0.3	0.66	-0.1	-1.1
C/C(=N\O)c1cccc(Br)c1	i	·	·	-0.1	·	1.6	-7.3
Cc1cc(C(=O)Nc2nc3ccc(Cl)cc3s2)nn1C	i	·	-13	0.5	0.68	-2.1	3.1
O=C(Nc1ccc(Oc2ccc3c(c2)C(=O)N(c2ccc(O)cc2)C3=O)cc1)c1cccs1	·	2%	4.3	-1.1	0.72	0.6	·
Cc1cc(C)nc(NC2=NCCN2C(=S)Nc2c(C)cccc2C)n1	i	-1%	2.5	-3.3	0.68	3.6	-1.0
O=C(Nc1nnc(C2CC2)s1)c1n[nH]c(=O)c2ccccc12	i	-6%	3.8	0.2	0.7	-1.0	-6.5
COC(=O)CN(c1ccc2c(c1)OCCO2)S(=O)(=O)c1ccccc1	·	22%	5.3	-1.8	0.78	4.0	·
CC1(C)CC(=O)C(C(c2ccc(Br)cc2)C2C(=O)CC(C)(C)CC2=O)C(=O)C1	i	·	3.9	5.0	0.72	0.9	2.7
COC(=O)c1ccc(CNC(=O)c2cc(COc3cncc(Cl)c3)on2)cc1	i	-4%	4.6	1.7	0.68	?	-1.7
CCOC(=O)c1cc(-c2ccccc2)nn1-c1ccccn1	·	1%	5.4	-1.3	0.73	-1.1	·
Cc1cccc(OCCNc2ccc([N+](=O)[O-])cn2)c1	i	?	7.4	4.7	0.67	-0.2	6.3
CC1(NC(=O)Cn2cc(C(F)(F)F)ccc2=O)CCS(=O)(=O)C1 (stereo unspecified)	i	-6%	0.9	-2.5	0.72	·	0.1
Cc1cc(C)n(-c2nc(SCC(=O)O)c3c4c(sc3n2)CCCC4)n1	·	-4%	-17	·	0.65	-1.0	·
COC(=O)CC1C(=O)NCCN1C(=O)CSc1nc2ccccc2c(=O)n1CC(C)C (stereo unspecified)	i	-3%	0.3	1.8	0.69	-0.1	6.6
Cc1ccc(CSc2nc3ccccc3c(=O)n2CCCC(=O)NCc2ccco2)cc1	·	19%	2.2	-1.7	0.73	-2.3	·
Cc1ccc(OCCCC(=O)Nc2nccs2)cc1	·	-1%	0.6	-0.2	0.74	-0.8	·
